# High-throughput results: PubChem, National Center for Advancing Translational Sciences (NCATS)
# Cruzain Triton: cruzain (T. cruzi) inhibition with detergent; P25779; purified cruzain, Z-FR-AMC fluorescence, 0.01% Triton; Potency, µM, inactives show max response, negative = inhibition, hits mostly inhibitors; 200,000 compounds, 0.43% hits; active means well fitted curve in the direction sought with a large enough effect; inconclusive means small, poorly fitted or top-dose-only effect, or another doubt; inactive means no such curve, though single readings can be large; an effect the other way counts as inactive or inconclusive;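 further: plate controls were neutral wells for no effect and buffer without enzyme for full effect; nearly all actives have a fitted effect of over 40% in size; top concentration of the series not given in the record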
# Target sequence (P25779 123-467 limits assumed): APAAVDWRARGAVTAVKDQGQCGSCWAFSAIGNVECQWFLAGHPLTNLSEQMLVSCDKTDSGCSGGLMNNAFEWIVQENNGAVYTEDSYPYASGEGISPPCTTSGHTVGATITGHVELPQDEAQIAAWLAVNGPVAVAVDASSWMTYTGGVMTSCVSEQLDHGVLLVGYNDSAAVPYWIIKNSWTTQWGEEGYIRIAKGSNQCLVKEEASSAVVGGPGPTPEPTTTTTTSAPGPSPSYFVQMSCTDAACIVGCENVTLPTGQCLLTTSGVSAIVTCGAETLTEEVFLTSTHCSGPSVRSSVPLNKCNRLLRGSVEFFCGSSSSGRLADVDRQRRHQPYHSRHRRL
#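 Compounds were screened in titration against cruzain (1.5 nM) with 0.01% Triton X-100 to counter colloidal aggregation. Activity was the AMC fluorescence increase over 60 s after adding 2 uM Z-FR-AMC at pH 5.5.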
# StopGo reporter: FMDV 2A StopGo reporter, luciferase signal. human cells with a luciferase reporter of 2A StopGo recoding; control for the full effect not named in the record. Potency, µM (doses to about 57.9 µM), for the others: top-dose signal change, negative = less light. 410,000 compounds, 1.2% hits; active = well fitted falling curve with a large enough effect; inconclusive = small, poorly fitted or top-dose-only effect; inactive = no such curve, though single readings can be large or run the other way; tested in HEK293T cells; further: on the % scale 0 is the no-effect control and ±100 the full control effect; nearly all actives have a fitted effect of over 45% in size; luciferase light after 4 h
# NS1 function inh: blocks influenza NS1 protein function; S. cerevisiae slowed by influenza A NS1, growth recovery by OD600; Potency, µM (highest dose often 46.1 µM), inactives show at the highest dose activity, positive = more growth; 270,000 compounds, 0.4% hits; further: actives are rising curves; nearly all actives have a fitted effect of over 50% in size
#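 Recovery from NS1-induced slow growth read by OD600 in budding yeast switched to galactose assay medium (pH 6.0, -URA) at 1:100 dilution. Compound 23 nl per well; the matching strain lacking NS1 serves as control.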
# Marburg entry inh: inhibitors of Marburg virus binding or cell entry; Marburg virus pseudotyped entry inhibition, cell reporter; control for the full effect not named in the record; about a third of the inactives were read at about 46 µM; Potency, µM (titrated, usually from 37.8 µM), for inactives: top-dose activity change, negative = inhibition, most hits filed as inhibitors; 300,000 compounds, 1.8% hits; AID 540276; active = well fitted inhibition curve with a large enough effect; inconclusive = small, poorly fitted or top-dose-only effect, or effect the other way; inactive = flat fitted curve, though single readings scatter; tested in HEK293 cells; about a fifth of its hits are not listed in these tables; further: on the % scale 0 is the no-effect control and ±100 the full control effect; luciferase read-out
# SARS PLP yeast: inhibitors of SARS-CoV papain-like protease in yeast. S. cerevisiae expressing SARS-CoV PLpro, growth rescue; control for the full effect not named in the record. Potency, µM (doses to about 32.9 µM), for inactives: at the top dose activity, positive = growth rescue. 330,000 compounds, 0.19% hits; further: 0% is about no effect; nearly all actives have a fitted effect of over 55% in size; growth read by luminescence after 48 h
# LASV entry inh: Lassa virus entry inhibition. Lassa virus pseudotype entry inhibition, cell reporter; control for the full effect not named in the record. Potency, µM (highest dose often 37.9 µM), for the others: at the highest dose activity change, negative = inhibition, actives largely listed as inhibitors. 300,000 compounds, 1.2% hits. AID 540256; active means well fitted inhibition curve with a large enough effect; inconclusive means small, poorly fitted or top-dose-only effect, or effect the other way; inactive means flat fitted curve, though single readings scatter; tested in HEK293 cells; further: on the % scale 0 is the no-effect control and ±100 the full control effect; nearly all actives have a fitted effect of over 50% in size; luciferase read-out
# RE007 growth inh: less growth of the S. pombe RE007 Vpr strain; S. pombe RE007 Vpr strain, BacTiter-Glo ATP luminescence, 24 h; control for the full effect not named in the record; Potency, µM (titrated, usually from 92.2 µM), for inactives: at the highest dose activity change, negative = less growth; 360,000 compounds, 0.21% hits; active = well fitted falling curve with a large enough effect; inconclusive = small, poorly fitted or top-dose-only effect; inactive = no such curve, though single readings can be large or run the other way;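 further: on the % scale 0 is the no-effect control and ±100 the full control effect; nearly all actives have a fitted effect of over 50% in size; the assay follows cell death caused by Vpr and the record does not say whether a fall means rescue or toxicity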
#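 Fission yeast strain RE007, carrying one chromosomally integrated HIV-1 vpr copy, was seeded at OD 0.01 in PMG+AL medium with 23 nL pinned compound. After 24 h at 30 °C and 99% humidity, viability was read by BacTiter-Glo luminescence.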
# Cruzain inh noDet: blocks cruzain activity in detergent-free assay. P25779. purified cruzain, Z-FR-AMC fluorescence, no detergent. Potency, µM, inactives show max response, negative = inhibition, hits mostly inhibitors. 200,000 compounds, 2.3% hits. AID 1476; active means well fitted curve in the direction sought with a large enough effect; inconclusive means small, poorly fitted or top-dose-only effect, or another doubt; inactive means no such curve, though single readings can be large; an effect the other way counts as inactive or inconclusive;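 further: plate controls were enzyme without inhibitor for no effect and buffer without enzyme for full effect; nearly all actives have a fitted effect of over 40% in size; top concentration of the series not given in the record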
#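 Purified cruzain at 1.5 nM, pre-incubated 15 min with compound at room temperature in 100 mM sodium acetate pH 5.5, 5 mM DTT, 0.00005% Triton X-100. Reaction started with 2 uM Z-FR-AMC; AMC fluorescence increase over 60 s gives rate.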
# Active calls of the source: *; ? = inconclusive; nt = no result given; & = joins results of further samples; [ ] = another dose, or the depositor's remark. Unless noted, the call rests on the fitted dose curve; in most records, active means well fitted rising curve with a large enough effect; inconclusive means small, poorly fitted or top-dose-only effect; inactive means no such curve, though single readings can be large or run the other way. Potency means the concentration at half of the fitted maximal effect.
SMILES,Cruzain Triton,StopGo reporter,NS1 function inh,Marburg entry inh,SARS PLP yeast,LASV entry inh,RE007 growth inh,Cruzain inh noDet
COc1ccc(OC(C)C(=O)N(C)Cc2nc(-c3ccc(OC)cc3)no2)cc1 (configuration not stated),nt,?,1%,-11%[46.1 µM],2%,-24%,-5%,nt
CC(C)CCN1NC2(CCC(C)CC2)NC1=S (configuration not stated),nt,3%,2%,20%,-1%,0%,-5%,nt
O=C(Nc1ccccc1C(=O)N1CCCCC1)c1cc(F)c(F)cc1Cl,nt,-5%,12%,12%,0%,0%,1%,nt
CCOc1ccc2nc(NCCO)[nH]c2c1,-3.9%,-8%,-1%,22%,14%,11%,-19%,-10%
COCCn1c(=NC(=O)C(C)(C)C)sc2cc([N+](=O)[O-])ccc21,-5.5%,2%,7%,24%,14%,?,2%,-1%
Cc1ccnc(NC(=O)CNC(=O)c2sc3ccccc3c2Cl)c1,nt,28%,nt,5%,2%,-24%,22%,nt
Cc1ccc(NC(=O)CNS(=O)(=O)c2ccc(F)cc2)cc1C,nt,5%,0%,6%,14%,3%,-6%,nt
COc1cccc(NC(=O)CCS(=O)(=O)c2ccc3c(c2)oc(=O)n3C)c1,-2.6%,-11%&-2%,2%,6%&6%[46.1 µM],-6%,21%&-3%[46.1 µM],2%,2%
COc1ccc(OC)c(NC(=O)c2ccc3c(Cl)c4c(nc3c2)CCCC4)c1,2.6%,-13%,nt,1%[46.1 µM],nt,?,nt,5%
CCc1ccc2nc3nc(C)cc(C)c3c(N)c2c1,-6.4%,nt,1%,?,-2%,?,-4%,3%
N=C1/C(=C\c2ccc(-c3ccc(C(=O)O)cc3)o2)C(=O)N=C2SC=C(c3ccccc3)N12,nt,?,6%,nt,1%,nt,1%,nt
Nc1nc(CSc2ncn(-c3ccccc3)n2)cs1,-2.7%,20%,-1%,-29%,-2%,-22%,-3%,-15%
CC(C)(CNC(=O)c1ccc(Br)o1)N1CCOCC1,nt,23%,-2%,nt,3%,nt,-7%,nt
CC1CCN(C(=O)c2ccc(NC(=O)c3ccccc3)cc2)CC1,nt,16%,-34%,-5%[46.1 µM],-1%,-6%[46.1 µM],12%,nt
Cc1cc(-c2n[nH]c(=S)n2/N=C/c2ccc(C)s2)n[nH]1,-4.8%,-14%,?,0%,-18%,-1%,11%,1%
COC(=O)C1CN(C#N)N(c2ccc(Cl)cc2)C12c1ccccc1-c1ccccc12 (configuration not stated),-9.2%,3.5µM*,30%,?,-81%,11µM*,18%,25µM*
CC(NC(=O)c1ccccc1)C(=O)NC1=NCCS1 (configuration not stated),-1.7%,-5%,2%,28%,4%,12%,-7%,-6%
O=C(OCCNC(=O)c1ccc2ccccc2n1)c1ccc(F)cc1,-7.3%,0%,-94%,?,-9%,?,-9%,4%
CC(=O)c1c(O)cc(O)c(C(C)=O)c1O,nt,?,-101%,nt,-9%,nt,2%,nt
CC(=O)Oc1ccc(-c2cccc(C(=O)N(C)c3ccc(O)cc3)c2)cc1,nt,-4%,-2%,22%[46.1 µM],1%,9%[46.1 µM],-3%,nt
O=C(CCCSc1nnnn1-c1cccc2ccccc12)c1ccc(F)cc1,2.4%,-19%,11%,-2%[46.1 µM],1%,-6%,0%,-2%
CCOC(=O)c1oc2ccc(S(=O)(=O)n3nc(-c4ccccc4OC)cc3N)cc2c1C,-3.6%,0%,nt,-4%[46.1 µM],nt,7%[46.1 µM],nt,-16%
Cc1c(Cc2ccccc2)sc(/N=C/c2c(O)ccc3ccccc23)c1C(N)=O,-8.2%,0%,0%,?,-46%,3%,?,-19%
CCC(C)C(NC(=O)C1CCC(C)CC1)C(=O)NCc1ccccn1 (configuration not stated),4.2%,11%,1%,0%,-2%,-11%,-12%,12%
Cc1cc(C)c2c(CC(=O)N(CCC#N)Cc3cccnc3)coc2c1,-2.3%,-15%,2%,-7%,-1%,-6%,11%,1%
O=C(CN1CCC(C(=O)c2ccc(F)cc2)CC1)Nc1ccc(F)cc1,-1.7%,?,-12%,?,-5%,?,-9%,-3%
O=C(Cc1ccc(N2CCNC2=O)cc1)N1CCCC(Nc2ccc(F)c(F)c2)C1 (configuration not stated),nt,-12%,3%,?,3%,-1%[46.1 µM],0%,nt
CCCn1c(O)c(N=NC(=O)CNC(=O)c2ccncc2)c2ccccc21,nt,-14%,-9%,-6%[46.1 µM],-1%,-9%[46.1 µM],18%,nt
COc1cc(C(=O)N2CCN(c3ncnc4sc(C)c(C)c34)CC2)cc(OC)c1OC,-0.4%,11µM*,-7%,?,-6%,?,-10%,?
Nc1nc(SCc2ccc([N+](=O)[O-])cc2)c2ncn([C@@H]3O[C@H](CO)[C@H](O)[C@H]3O)c2n1,-4.0%,nt,-3%,?,nt,nt,nt,4%
COC(=O)c1ccc(NC(=O)C[n+]2ccccc2)cc1,nt,5%,-2%,4%[46.1 µM],-2%,15%[46.1 µM],1%,nt
Cc1ccc(CN2CCN(CC(=O)Nc3ccc(C)c(C)c3)S2(=O)=O)cc1,-6.0%,-2%,nt,nt,nt,1%[46.1 µM],nt,11%
CCOC(=O)c1[nH]c2ccccc2c1NC(=O)C1CCCCC1,0.3%,nt,-3%,-13%,3%,3%,-3%,?
O=c1c(OC2OC(CO)C(O)C(O)C2OC2OC(CO)C(O)C(O)C2O)c(-c2ccc(O)cc2)oc2cc(O)cc(O)c12 (configuration not stated),nt,-21%,8%,nt,3%,nt,-3%,nt
CCC(=O)c1ccc(OCC(=O)OCC(=O)N(C)CC(=O)Nc2ccc(F)cc2)cc1,nt,-14%,nt,-6%,6%,-1%,2%,nt
CCCN(c1ccc(OCC)cc1)S(=O)(=O)c1ccc2c(c1)CCN2C(=O)CCC(=O)O,-3.0%,20%,-6%,0%&8%,0%,25%[14.3 µM],11%,-5%
Cc1ccc(CC(=O)Nc2cccc(S(=O)(=O)N3CCOCC3)c2)cc1,nt,39%[activator],-8%,-3%,4%,-21%,19%,nt
O=C(NCCc1ccc(Cl)cc1)c1cnccn1,nt,11%,-7%,?,4%,21%[46.1 µM],11%,nt
CCc1cccc(NC(=O)COC(=O)c2cn(CC)c3nc(C)ccc3c2=O)c1,-16%,-21%,nt,15%[46.1 µM],nt,15%[46.1 µM],nt,11%
NS(=O)(=O)c1ccc(CNS(=O)(=O)c2cc(C(=O)O)ccc2Cl)cc1,nt,-1%,8%,3%,1%,9%,6%,nt
O=C(NCC1CCCO1)C1CCN(C(=O)c2ccc(Cl)cc2)CC1 (configuration not stated),1.9%,-11%,?,-5%,-2%,0%,5%,2%
CCCCOC(=O)c1ccc(NC(=S)NC(=O)c2c(Cl)cnn2C)cc1,-4.7%,?,17%,2%[46.1 µM],0%,1%,-21%,3%
CC(C)(C)n1cnc(C(N)=O)c1N,-1.5%,1%,10%,12%[46.1 µM],8%,6%,10%,-8%
COc1cccc(N2CCN(C(=O)c3ccc(CSc4nc5ccncc5[nH]4)cc3)CC2)c1,-12%,-19%,26%,-40%,0%,?,-8%,-1%
CN=C(C)c1c(O)c2ccccc2oc1=O,-0.3%,45%[activator],-187%,25%&25%,-18%,?,-14%,5%
CC(/C=N\NC(=O)c1ccc(C)nc1)=C\c1ccccc1,-2.8%,18%,3%,10%,5%,17%,16%,7%
Cc1nc(-c2cccc(F)c2)sc1CCNC(=O)c1ccc(F)c(F)c1,-12%,-5%,nt,nt,nt,-13%[46.1 µM],nt,-8%
O=C(NN=C1c2ccccc2-c2ccccc21)c1ccccc1,-0.9%,-1%,8%,0%,6%,nt,14%,5%
c1csc(C2=Nn3c(nnc3-c3ccncc3)SC2)c1,1.4%,-18%,6%,-26%,-2%,-4%,-5%,?
O=C(CNC(=S)NC(=O)c1ccc(Cl)cc1)c1ccccc1,1.6%,12%,14%,3%,10%,14%,-3%,?
Cc1csc(=Nc2ccccc2)n1C,nt,12%,nt,7%[46.1 µM],0%,-1%[46.1 µM],3%,nt
Cc1ccc2[nH]c3c(=O)n(CC(=O)NCCCN4CCN(c5ccc(F)cc5)CC4)ncc3c2c1,-2.1%,-17%&-22%,0%,5%[46.1 µM],20%,11%&12%[46.1 µM],-2%,2%
CCc1cccc2c(C(=O)CN3C(=O)C(=O)N(C4CCCC4)C3=O)c[nH]c12,nt,-6%,nt,-2%,10%,15%,-5%,nt
Cc1cccc(C)c1OCC(=O)Nc1ccccc1N1CCCCC1,nt,-29%,14%,nt,-12%,nt,-1%,nt
C=CCOc1ccc(/C=N/NC(=O)CC(=O)NC2CCCCC2)cc1,nt,-4%,1%,-8%[46.1 µM],-3%,-2%[46.1 µM],18%,nt
CCCc1n(CC(O)COC2CCCCC2)c2ccccc2[n+]1C (configuration not stated),nt,-25%,-3%,-1%[46.1 µM],1%,-30%[46.1 µM],-2%,nt
CC(C)(C)C(=O)N1CCC(O)(CS(=O)(=O)Cc2ccccc2)CC1,nt,-13%,nt,1%[46.1 µM],3%,3%,-14%,nt
CCCCSc1nnc(-c2cc3c(C(F)(F)F)nn(C)c3s2)n1C,2.5%,0%,-1%,-9%,5%,7%,1%,?
COc1ccc(C2NC(=O)c3c(sc4c3CCN(C)C4)N2)cc1O (configuration not stated),-14%,-3%,nt,18%[46.1 µM],nt,-8%[46.1 µM],nt,3%
COc1ccc(OC)c(S(=O)(=O)Nc2cc3c4c(c2)C(C)C(=O)N4CCC3)c1 (configuration not stated),nt,38%[activator],nt,-15%,-5%,-2%,-9%,nt
# The list continues.
SMILES,Cruzain Triton,StopGo reporter,NS1 function inh,Marburg entry inh,SARS PLP yeast,LASV entry inh,RE007 growth inh,Cruzain inh noDet
CCC(C)Sc1nnc(NC(=O)C2CCN(C(=O)c3ccco3)CC2)s1 (configuration not stated),nt,-8%,7%,?,-3%,nt,-4%,nt
Cc1ccc2nc(Cl)c(C3CC(c4cccs4)=NN3C(=O)CCC(=O)O)cc2c1 (configuration not stated),2.5%,-6%,6%,10%[46.1 µM],4%,9%,-26%,-7%
Cc1ccc(CNC(=O)c2nnn(Cc3ccc(F)cc3)c2N)cc1,-0.4%,-11%,nt,-7%[46.1 µM],nt,-5%[46.1 µM],nt,12%
CCc1ccc(-c2nc(CS(=O)CC(=O)NC3CC3)c(C)o2)cc1 (configuration not stated),nt,20%,25%,nt,9%,nt,3%,nt
